Screening results from PubChem BioAssay.
LT uptake inh: blocks cellular internalization of anthrax lethal toxin; Cells, anthrax lethal toxin internalization, FRET ratio (460/530); Potency, µM (top dose mostly 40 µM), without a hit: top-dose activity change, negative = inhibition, most hits filed as inhibitors; 0.67% of 70,000 active; AID 912; active = well fitted falling ratio curve with the 530 nm signal flat; inconclusive = other ratio curves, or a change in one channel alone; inactive = flat curves in the ratio and both channels; the % refers to the ratio; further: on the % scale 0 is the no-effect control and ±100 the full control effect; nearly all actives have a fitted effect of over 50% in size; tested in ME-180 cells; beta-lactamase reporter
Prx2 Sm inh: Schistosoma mansoni Prx2 inhibition | S. mansoni Prx2 activity coupled to TGR/GSH (TGR is thioredoxin glutathione reductase), NADPH fluorescence loss, qHTS; some inactives read as strong as hits | 0.07% of 65,000 active | AID 448 | Potency, µM; active means full or partial inhibition curve with a strong effect at the top dose; inconclusive means weaker partial or single-point curve; inactive means no accepted curve; further: series up to 57 µM; many of its hits are not listed in these tables
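Prx2 activity was followed as the loss of NADPH fluorescence (ex 365/em 450 nm), read every 30 sec for 8 min after H2O2 start. The enzyme mix (50 nM Prx2, 25 nM TGR, GSH, NADPH; pH 7.4 phosphate buffer) was incubated with compound for 15 min at room temperature first.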
The depositor's hits bear a star; ? = inconclusive; nt = no result given; & = joins results of further samples; [ ] = dose if it differs, or a comment. Potency means the concentration at half of the fitted maximal effect. Not all compounds are listed; the hit share may differ from the screen's.

SMILES | LT uptake inh | Prx2 Sm inh
Cc1cc2c(C(F)(F)F)cc(=O)oc2c2c1NCCC2 | ? | >57
C=C[C@@](C)(O)CC[C@H]1[C@]2(C)CCCC(C)(C)[C@H]2CC[C@]1(C)O | ? | >57
Cc1cc(N2CCC(C(=O)NCC3CC3)CC2)nc(-c2ccccc2)n1 | -4% | >57
CC(C)[C@H](NC(=O)C1(c2ccccc2)CCN(C(=O)OC(C)(C)C)CC1)C(=O)O | 9% | >57
Fc1ccc(C2CC(c3ccc(F)cc3)n3ncnc3N2)cc1 (configuration not stated) | nt | >57
Cc1noc(C)c1COC(=O)CCc1ccc(S(=O)(=O)N2CCCCC2)cc1 | -2% | >57
C=C1C(=O)O[C@@H]2[C@@H]1CC/C(C)=C\CC[C@@]1(C)O[C@H]21 | ? | >57&>57
Cc1cccc(Cn2cnc3c(nnn3Cc3ccc(Cl)cc3)c2=O)c1 | -14% | >57
CCOC(=O)CCP(=O)(O)C(O)c1ccc(OC)cc1 (configuration not stated) | -5% | >57
CC12C(=O)N(c3ccccc3C(=O)O)C(=O)C1C1C=CC2C1 (configuration not stated) | 2% | >57
CCOC(=O)C(C)Oc1ccccc1C1NC(=O)NC(C)=C1C(=O)Nc1ccc(C)c(C)c1 (configuration not stated) | 2% | >57
Cc1cccc(N=c2oc3cc(O)ccc3cc2C(N)=O)c1 | ? | >57
CNC(=O)C1(C)C=CCN1C(=O)c1ccccc1 (configuration not stated) | -2% | nt
Nc1nc(-c2ccco2)nn1C(=O)c1cccnc1 | 14% | >57
Cc1c(OCc2nn[nH]n2)ccc2c(-c3ccccc3)cc(=O)oc12 | ? | >57
COC(=O)Nc1ccc2[nH]cc(CCNC(C)=O)c2c1 | -3% | >57
CC(=O)N1CC=CC1(C)C(=O)NCC1CC1 (configuration not stated) | -2% | nt
COc1ccc(C2=CC(c3sccc3C)n3nnnc3N2)cc1 (configuration not stated) | -16% | >57
O=C1C2CC=CCC2C(=O)N1SC(Cl)(Cl)Cl (configuration not stated) | 3.2µM* | nt
C[C@]1(O)CC[C@H]2[C@@H]3CCC4=CC(=O)CC[C@]4(C)[C@@]3(F)[C@@H](O)C[C@@]21C | -8% | nt
Cc1cc(S(=O)(=O)NCc2ccccc2)ccc1OCC(=O)N1CCN(C)CC1 | -1% | >57
O=C(CSc1nc(-c2ccco2)cc(C(F)(F)F)n1)N1CCCc2ccccc21 | -2% | >57
O=C(CCN1C(=O)c2ccccc2C1=O)N1CCN(c2ccccc2)CC1 | -2% | >57
O=C(NCc1cccnc1)C1CC(=O)N(C2CCCCC2)C1 (configuration not stated) | 10% | >57
CC(=O)OCC1OC(C#Cc2ccccc2Cl)C=CC1OC(C)=O (configuration not stated) | -8%[8 µM] | nt
COc1ccc(CNc2ncncc2-c2ccc(N(C)C)cc2)c(OC)c1 | -10% | >57
CCC(C)NS(=O)(=O)c1ccc(S(=O)(=O)Nc2cc3c(cc2C(C)=O)OCO3)cc1 (configuration not stated) | -16% | >57
CCOCCCNC(=O)C(NC(=O)C1CCC(=O)N1)c1ccc(C)cc1 (configuration not stated) | 10% | >57
CCOc1ccc(N(CC(=O)Nc2ccc(OC)cc2)S(C)(=O)=O)cc1 | 0% | >57
O=C(Cn1nnc(-c2ccc(N3CCOCC3)cc2)n1)OC1CCCCC1 | 12% | >57
Cc1cccc(N2CCN(c3cccc(C)c3)C2c2cccnc2)c1 | ? | nt
COc1ccc(-c2nc3cnc(N4CCOCC4)nc3n(C[C@H]3CCCO3)c2=O)cc1 | ? | >57
S=C=Nc1cccc(NC(=S)NCCCCNC(=S)Nc2cccc(N=C=S)c2)c1 | -6% | nt
N#Cc1c(N)nc2c(c1-c1ccncc1)CCCCC2 | 6% | >57
COc1ccc(N2C(=O)c3ccccc3NC23CCCCC3)cc1 | -29% | nt
CC1Oc2ccccc2N(CC(=O)NCc2cccs2)C1=O (configuration not stated) | -29% | >57
CCOc1ncccc1C(=O)OCC(=O)c1c(N)n(C)c(=O)n(C)c1=O | -12% | >57
Cc1cc(C(=O)CSc2nc(N)cc(N)n2)c(C)n1CCc1ccc(F)cc1 | ? | >57
Cn1ccnc1SCc1cn2cc(Br)ccc2n1 | -10% | >57
CC1CCCC(C)N1C(=O)COC(=O)c1ccc2c(c1)OCO2 (configuration not stated) | 8% | >57
Cc1cccc(OCc2nnc(SCn3nnc4ccccc4c3=O)o2)c1 | -4% | >57
COC(=O)/C=C1\NCCSC1=O | ? | >57
O=C(Nc1nc2c(s1)CCCC2)Oc1ccccc1 | ? | >57
O=C(c1ccc2c(=O)n(Cc3ccco3)c(=S)[nH]c2c1)N1CCN(c2ccccc2)CC1 | ? | >57
CCOc1ccccc1C(=O)Nc1cc(Cl)ccc1O | ? | >57
Cc1cc(-n2c(=O)c(C#N)cc3c(=O)n4ccccc4nc32)no1 | ? | nt
O=C(Nc1nccs1)c1ccc2nccnc2c1 | 15% | >57
Cc1noc(C)c1-c1ccc2ncnc(NC3CCNCC3)c2c1 | 3% | >57
O=C(COc1ccc(Cl)cc1Cl)Nc1ccccn1 | ? | >57
Cc1cc2nc(NC3=NCN(Cc4cccnc4)CN3)nc(C)c2cc1C | 7% | nt
(more compounds)
SMILES | LT uptake inh | Prx2 Sm inh
COc1cc2c(cc1OC)CN(C(=O)C1(c3ccccc3)CC1)CC2 | -18% | >57
CCCOc1ccc(N2C(=O)CC(NCCNc3ccc(S(=O)(=O)CC)cc3)C2=O)cc1 (configuration not stated) | -27% | >57
O=C(O)C1C2C=CC(O2)C1C(=O)Nc1ccc(S(=O)(=O)Nc2ccccc2)cc1 (configuration not stated) | 9% | >57
O=C1c2ccccc2NC2CCCCCN12 (configuration not stated) | 6% | >57
S=C(S)NCCCn1ccnc1 | -3%[8 µM] | >57
C=C(C)[C@@H]1CN[C@H](C(=O)O)[C@H]1CC(=O)O | 2% | >57
O=C(CN1CCCCC1)Nc1ccc(F)c(Cl)c1 | ? | >57
O=C(NCc1cccs1)C1CC(=O)N(c2ccccc2)C1 (configuration not stated) | 2% | >57
CC(=O)Nc1ccc(S(=O)(=O)Nc2cccc(-c3nc4cc(C)ccc4o3)c2)cc1 | 13µM* | >57
COc1ccccc1NC(=O)c1cccc(S(=O)(=O)N2CCOCC2)c1 | 1% | >57
COc1ccc(CNC(=O)CN(c2cccc(OC)c2)S(C)(=O)=O)cc1 | -10% | >57
COc1ccc(-c2nc(C#N)c(NCCN(C)C)o2)cc1 | 10% | >57
COC(=O)c1ccccc1NC(=O)c1ccc(F)cc1 | 10% | >57
O=C(O)c1ccc(NS(=O)(=O)/C=C/c2ccccc2)cc1 | -2% | >57
CCOC(=O)c1[nH]c2ccc(OC)cc2c1NC(=O)C(C)N1CCC2(CC1)OCCO2 (configuration not stated) | 2% | >57
Cc1coc(C)c1C(=O)CC1(O)C(=O)N(Cc2ccccc2)c2ccccc21 (configuration not stated) | -15% | >57
Cc1nnc(NC(=O)C(C)Oc2ccc3c(C)cc(=O)oc3c2)s1 (configuration not stated) | 2% | >57
CC(C)CCn1nnnc1C(c1ccccc1)N1CCC(C(N)=O)CC1 (configuration not stated) | -6% | >57
CCOC(=O)c1cc2sccc2n1CCCN1C(=O)c2ccccc2C1=O | ? | >57
CCCS(=O)(=O)N1CCC(C(=O)N2CCCC2)CC1 | -12% | >57

Complete entries as entered above:
Entry for `Cc1nnc(NC(=O)C(C)Oc2ccc3c(C)cc(=O)oc3c2)s1` (configuration not stated) → LT uptake inh = 2%; Prx2 Sm inh = >57
Entry for `CCCS(=O)(=O)N1CCC(C(=O)N2CCCC2)CC1` → LT uptake inh = -12%; Prx2 Sm inh = >57
Entry for `COC(=O)c1ccccc1NC(=O)c1ccc(F)cc1` → LT uptake inh = 10%; Prx2 Sm inh = >57

Remaining list, next part
SMILES | LT uptake inh | Prx2 Sm inh
Nc1ccc(-c2cc(N)n(-c3ccccc3)n2)cc1 | ? | >57
Cn1c(CN2CCCCC2)nc2cc(NC(=O)c3ccccc3)ccc21 | 5% | >57
O=C(c1ccc(Cn2cc(Cl)cn2)cc1)N1CCN(c2ccccc2)CC1 | -8% | >57
O=C(NCc1ccco1)Nc1ccc2nsnc2c1 | ? | >57
CCCC(=O)Nc1ccc(NC(=O)Cc2ccccc2)cn1 | -19% | >57
Cc1noc(C)c1-c1nc(Nc2ccccc2)c2ccccc2n1 | ? | >11
Fc1cccc(NCc2ccoc2)c1 | -4% | >57
CC(C)[C@@H](CC(=O)N[C@@H]1CCCC[C@H]1C(=O)N[C@H](CC(=O)N[C@@H](CCC(=O)O)CC(=O)O)Cc1c[nH]c2ccccc12)NC(=O)C[C@H](Cc1c[nH]c2ccccc12)NC(=O)[C@@H]1CCCC[C@H]1N | -3% | >57
CCCCCC[C@@H]([C@@H](C)O)n1cnc2c(N)ncnc21 | ? | >57
COCCNc1oc(COc2cccc(C)c2)nc1C#N | -1% | >57

Another view of 2 compounds above:
Each structure is followed by: LT uptake inh | Prx2 Sm inh
> O=C(NCc1ccco1)Nc1ccc2nsnc2c1
→ ? | >57
> Nc1ccc(-c2cc(N)n(-c3ccccc3)n2)cc1
→ ? | >57

More results:
SMILES | LT uptake inh | Prx2 Sm inh
CN1CCc2c(c3ccccc3n2Cc2ccccc2)C1 | ? | >57&>57
Cc1ccc(-n2nc(C)c(C3C(C#N)=C(N)OC4=C3C(=O)CC(C)(C)C4)c2Cl)cc1 (configuration not stated) | 0% | >57
Cc1cccc(NC(=O)C2CCN(c3nccc(C)n3)CC2)c1 | -10% | >57
CC(C)OC(=O)CSc1nnc(-c2ccc(Cl)cc2Cl)n1N | 7% | >57
N[C@H](C(=O)O)c1ccc(C(=O)O)c(O)c1 | ? | >57
COC(=O)c1cc2sccc2n1Cc1ccc(C)cc1 | -9% | >57
CC1(C)CC(=O)C(C=NCCN2CCOCC2)=C(O)C1 | -6% | nt
CC1=CCC(Cc2nc3ccccc3o2)C1(C)C (configuration not stated) | -15% | >57
C=C(C)COc1ccc2c(c1)CCC1C2CC[C@]2(C)C(=O)/C(=N/O)CC12 (some centres not stated) | -2%[8 µM] | >57
Cc1[nH]c2ccccc2c1C(=O)CN1CCCC1 | -21% | >57
CCOC(=O)CNC(=O)CSc1nc(N)cc(N)n1 | -4% | >57
Cn1c(=O)c2c(nc(N3CCCCC3)n2CCNC2=NCCC2)n(C)c1=O | ? | >57
O=C(NCCN1C(=O)C2C3C=CC(C3)C2C1=O)Nc1ccccc1 (configuration not stated) | -2% | >57
COc1ccccc1N1CCN(C(=O)c2sc3nc(-c4ccccc4)cn3c2C)CC1 | ? | >57
O=C(CCc1ccccc1)Nc1nc2nc(-c3ccccc3)cc(=O)n2[nH]1 | nt | >57
COCc1cc(C)nc2sc(C(=O)Nc3nccs3)c(N)c12 | -9% | >57
Cc1cccc(CNc2ccnc(-c3ccccc3C(F)(F)F)n2)c1 | ? | >57
O=C(Nc1ccc(F)cc1F)c1cc2ncc(Br)cn2n1 | -1% | >57
C[C@H](CO)NC(=O)[C@H](C)[C@H]1C[C@]1(C)[C@H](NC(=O)OCc1ccccc1)c1ccccc1 | 9% | >57
COCCCn1c(-c2ccccc2)nc2ccccc2c1=O | -7% | >57
CC(C)NC(=O)N1CC[C@@]2(CCCN(C(=O)Oc3ccccc3)C2)C1 | 4% | >57
CC(C)C1N=C2c3ccccc3N=C(SCC#N)N2C1=O (configuration not stated) | 13% | >57
O=C1c2ccccc2NC(c2ccc(Cl)cc2Cl)N1O (configuration not stated) | 0% | >57
COC(=O)c1ccc(CSc2nc(N)cc(N)n2)cc1 | -7% | >57
CCS(=O)(=O)NCCCc1ccccc1 | 6% | >57
CCOC(=O)Cc1nnc(NC(=O)CSc2nncn2C)s1 | 4% | >57
Cc1ccc(-n2c(-c3ccncc3)nnc2-c2cccs2)cc1 | 0% | >57
C=C(C)CSc1nc(C)c(Cc2ccccc2)c(=O)[nH]1 | ? | >57
Cc1cc(C)c2nc(C(F)(F)F)nc(NCCCN3CCCC3=O)c2c1 | -14% | >57
CCCCn1cnc2cc(NCc3ccncc3)ccc21 | 6% | >57
COc1ccc(NC(=O)C2=C(C)NC(=O)NC2c2cccc(OC)c2OC)c(OC)c1 (configuration not stated) | 0% | >57
Cc1ccc(-c2nnc3sc(C4COc5ccccc5O4)nn23)cc1 (configuration not stated) | -3% | >57

Seven successive entries out of the list so far:
SMILES | LT uptake inh | Prx2 Sm inh
CC(C)C1N=C2c3ccccc3N=C(SCC#N)N2C1=O (configuration not stated) | 13% | >57
O=C1c2ccccc2NC(c2ccc(Cl)cc2Cl)N1O (configuration not stated) | 0% | >57
COC(=O)c1ccc(CSc2nc(N)cc(N)n2)cc1 | -7% | >57
CCS(=O)(=O)NCCCc1ccccc1 | 6% | >57
CCOC(=O)Cc1nnc(NC(=O)CSc2nncn2C)s1 | 4% | >57
Cc1ccc(-n2c(-c3ccncc3)nnc2-c2cccs2)cc1 | 0% | >57
C=C(C)CSc1nc(C)c(Cc2ccccc2)c(=O)[nH]1 | ? | >57
